Cruzain inh noDet – qHTS Assay for Promiscuous and Specific Inhibitors of Cruzain (without detergent) | Cruzipain (Trypanosoma cruzi), P25779 | purified cruzain, Z-FR-AMC fluorescence, no detergent | Potency, µM, without a hit: max response, negative = inhibition, hits mostly inhibitors | actives 2.3% (n = 200,000) | AID 1476, 2009;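 further: plate controls were enzyme without inhibitor for no effect and buffer without enzyme for full effect; nearly all actives have a fitted effect of over 40% in size; top concentration of the series not given in the record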
Target sequence (P25779 123-467 limits assumed): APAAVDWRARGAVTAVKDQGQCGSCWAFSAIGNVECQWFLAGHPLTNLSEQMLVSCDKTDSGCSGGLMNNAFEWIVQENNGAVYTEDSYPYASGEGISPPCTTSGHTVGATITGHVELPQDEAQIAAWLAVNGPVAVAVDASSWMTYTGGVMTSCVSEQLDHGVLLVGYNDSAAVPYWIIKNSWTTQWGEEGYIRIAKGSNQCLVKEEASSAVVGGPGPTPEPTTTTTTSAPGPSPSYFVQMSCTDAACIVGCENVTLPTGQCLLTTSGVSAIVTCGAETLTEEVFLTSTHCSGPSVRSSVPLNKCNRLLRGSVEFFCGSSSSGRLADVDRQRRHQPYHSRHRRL
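Detergent-free condition (0.00005% Triton X-100) in acetate buffer pH 5.5 with DTT. 1.5 nM enzyme and compound were pre-mixed 15 min, then 2 uM Z-FR-AMC substrate added; reaction progress from fluorescence change between first and third reads (60 s).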
Cruzain inh Det – qHTS Assay for Promiscuous and Specific Inhibitors of Cruzain (with detergent); Cruzipain (Trypanosoma cruzi), P25779; purified cruzain, Z-FR-AMC fluorescence, 0.01% Triton; Potency, µM, inactives show max response, negative = inhibition, actives largely listed as inhibitors; actives 0.43% (n = 200,000);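 further: plate controls were neutral wells for no effect and buffer without enzyme for full effect; nearly all actives have a fitted effect of over 40% in size; top concentration of the series not given in the record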
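Purified cruzain (1.5 nM final) was preincubated with compounds for 15 min at room temperature in 100 mM sodium acetate pH 5.5, 5 mM DTT, 0.01% Triton X-100. Reaction started with 2 uM Z-FR-AMC; AMC fluorescence change over 60 s gave activity.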
SARS PLpro yeast – qHTS of Yeast-based Assay for SARS-CoV PLP | actives 0.19% (n = 330,000) | S. cerevisiae expressing SARS-CoV PLpro, growth rescue; control for the full effect not named in the record | Potency, µM (titrated, usually from 32.9 µM), for inactives: top-dose activity, positive = growth rescue | AID 485353, 2010; active means well fitted rising curve with a large enough effect; inconclusive means small, poorly fitted or top-dose-only effect; inactive means no such curve, though single readings can be large or run the other way; further: 0% is about no effect; nearly all actives have a fitted effect of over 55% in size; growth read by luminescence after 48 h
NS1 function inh – qHTS Assay for Inhibitors of Influenza NS1 Protein Function | S. cerevisiae slowed by influenza A NS1, growth recovery by OD600 | Potency, µM (doses to about 46.1 µM), for the others: at the highest dose activity, positive = more growth | actives 0.4% (n = 270,000) | AID 2326, 2010; active means well fitted rising curve with a large enough effect; inconclusive means small, poorly fitted or top-dose-only effect; inactive means no such curve, though single readings can be large or run the other way; further: nearly all actives have a fitted effect of over 50% in size
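Growth recovery, yeast-based: influenza A NS1 expressed in S. cerevisiae causes slow growth, and suppressors are detected by OD600. The parent strain without NS1 is used as positive control.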
RE007 growth inh – qHTS Assay for Inhibitors of the HIV-1 protein Vpr | S. pombe RE007 Vpr strain, BacTiter-Glo ATP luminescence, 24 h; control for the full effect not named in the record | actives 0.21% (n = 360,000) | Potency, µM (top dose mostly 92.2 µM), for inactives: top-dose activity change, negative = less growth | AID 651644, 2012; active = well fitted falling curve with a large enough effect; inconclusive = small, poorly fitted or top-dose-only effect; inactive = no such curve, though single readings can be large or run the other way;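 further: on the % scale 0 is the no-effect control and ±100 the full control effect; nearly all actives have a fitted effect of over 50% in size; the assay follows cell death caused by Vpr and the record does not say whether a fall means rescue or toxicity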
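Fission yeast RE007 carrying one integrated HIV-1 vpr copy, seeded at OD 0.01 in PMG+AL medium with 23 nL pinned compound. Grown 24 h at 30 degrees; viability read by BacTiter-Glo luminescence after 5 min.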
MARV entry inh – qHTS for inhibitors of binding or entry into cells for Marburg Virus | Potency, µM (series often up to 37.8 µM), for the others: at the highest dose activity change, negative = inhibition, actives largely listed as inhibitors | actives 1.8% (n = 300,000) | Marburg virus pseudotyped entry inhibition, cell reporter; control for the full effect not named in the record; about a third of the inactives were read at about 46 µM; active = well fitted inhibition curve with a large enough effect; inconclusive = small, poorly fitted or top-dose-only effect, or effect the other way; inactive = flat fitted curve, though single readings scatter; tested in HEK293 cells; about a fifth of its hits are not listed in these tables; further: on the % scale 0 is the no-effect control and ±100 the full control effect; luciferase read-out
StopGo reporter – High Throughput Screening for Foot and Mouth Disease Virus Antivirals. actives 1.2% (n = 410,000). human cells with a luciferase reporter of 2A StopGo recoding; control for the full effect not named in the record. Potency, µM (doses to about 57.9 µM), without a hit: at the top dose signal change, negative = less light; active = well fitted falling curve with a large enough effect; inconclusive = small, poorly fitted or top-dose-only effect; inactive = no such curve, though single readings can be large or run the other way; tested in HEK293T cells; further: on the % scale 0 is the no-effect control and ±100 the full control effect; nearly all actives have a fitted effect of over 45% in size; luciferase light after 4 h
Lassa entry inh – qHTS for Inhibitors of binding or entry into cells for Lassa Virus. actives 1.2% (n = 300,000). Potency, µM (highest dose often 37.9 µM), for the others: top-dose activity change, negative = inhibition, usual class: inhibitors. Lassa virus pseudotype entry inhibition, cell reporter; control for the full effect not named in the record; active means well fitted inhibition curve with a large enough effect; inconclusive means small, poorly fitted or top-dose-only effect, or effect the other way; inactive means flat fitted curve, though single readings scatter; tested in HEK293 cells; further: on the % scale 0 is the no-effect control and ±100 the full control effect; nearly all actives have a fitted effect of over 50% in size; luciferase read-out
An asterisk follows results filed as active; ? = inconclusive; / = no result given; & = joins results of further samples; [ ] = dose if it differs, or a comment. Unless noted, the call rests on the fitted dose curve; in most records, active means well fitted curve in the direction sought with a large enough effect; inconclusive means small, poorly fitted or top-dose-only effect, or another doubt; inactive means no such curve, though single readings can be large; an effect the other way counts as inactive or inconclusive. Potency means the concentration at half of the fitted maximal effect.

SMILES	Cruzain inh noDet	Cruzain inh Det	SARS PLpro yeast	NS1 function inh	RE007 growth inh	MARV entry inh	StopGo reporter	Lassa entry inh
CCOc1ccc(Br)cc1S(=O)(=O)Nc1ccc(Cl)c(S(=O)(=O)N(CC)c2ccccc2)c1	?	-1.7%	4%	?	-1%	?	56%[activator]	-27%&-26%
Cc1cc(NC(=O)COC(=O)C2CCCN2C(=O)c2cccs2)no1 (stereo not drawn)	-8%	3.6%	-5%	-5%	8%	-3%	-16%	-8%
Cc1cc(C(=O)N/N=C/c2cccnc2)c2ccccc2n1	/	/	4%	0%	-11%	?	-13%	-7%
COc1ccc(OC)c2c(N3CC(C)OC(C)C3)cc(C(F)(F)F)nc12 (stereo not drawn)	-6%	-4.4%	-22%	-3%	22%	-18%	-2%	2%
Cc1cc(O)c2c(C)c(CC(=O)NCc3ccccc3Cl)c(=O)oc2c1	-21%	-8.6%	/	/	/	-8%[46.1 µM]	2%	-1%[46.1 µM]
CCCOc1ccccc1C(=O)NCCCC(=O)O	-6%	2.3%	4%	-2%	35%	14%&14%[46.1 µM]	10%	4%
O=C(NNC(=O)c1cccc(S(=O)(=O)N2CCN(c3ccccc3)CC2)c1)c1ccc(Cl)cc1	-21%	0.5%	11%	?	-23%	-5%	-10%	0%
Fc1cccc(C2NC(=S)NC3=C2N2CCC3CC2)c1 (stereo not drawn)	9%	4.7%	7%	12%	12%	-10%	1%	0%
CC(C)C(NC(=O)C(C)N1C(=O)c2ccccc2C1=O)c1ccccc1 (stereo not drawn)	/	/	2%	3%	-5%	20%[46.1 µM]	-13%	?
COc1cc(C(=O)Nc2ccc3nc(N4CCN(C)CC4)cc(C)c3c2)cc(OC)c1OC	/	/	0%	2%	-5%	/	-16%	/
O=C(CCN1C(=O)/C(=C\c2ccccc2)SC1=S)NNC(=O)c1ccccc1O	/	/	-1%	1%	-11%	-16%[46.1 µM]	2%	-17%[46.1 µM]
Nn1c(SCC(=O)N2CCCc3ccccc32)nncc1=O	/	/	-1%	/	8%	20%[46.1 µM]	20%	-10%
Cc1ccccc1NS(=O)(=O)c1ccc(C(=O)N2CCCCCC2)cc1	/	/	1%	/	1%	-6%	-26%	-7%[46.1 µM]
Cc1ccc(C(=O)NC2(C(Cl)Cl)N=C(c3ccccc3)N=C2N)cc1 (stereo not drawn)	/	/	1%	/	8%	2%[46.1 µM]	-11%	18%
Cc1cc(C)c2c(c1)/C(=c1/sc3n(c1=O)CN(c1ccccc1)CN=3)C(=O)N2	/	/	-2%	3%	-11%	?	-13%	1%
CC1CN(Cc2ccco2)C(=S)NC1=O (stereo not drawn)	/	/	/	/	-3%	-2%[46.1 µM]	-5%	?
Cc1nc(-c2nnc(SCC(=O)Nc3cc(Cl)cc(Cl)c3)n2C)cs1	/	/	-7%	13%	7%	-1%[46.1 µM]	-1%	10%
COc1ccc(S(=O)(=O)NCCc2ccc(F)cc2)cc1	2%	-2.3%	-3%	-17%	1%	2%	72%[activator]	9%
O=c1cc2nc(-c3ccccc3F)nc(SCc3ccc(Br)cc3)n2[nH]1	-2%	0.2%	/	/	/	/	-23%	?
CCCN(Cc1ccccc1)C(=S)Nc1cccc(C(F)(F)F)c1	0%	-4.7%	-6%	-50%	-1%	?	9%	?
CC(=O)Nc1ccc(S(=O)(=O)N2CCN=C2C)cc1	-8%	-1.0%	-1%	-5%	1%	30%[46.1 µM]	21%	-6%
COc1cc(/C=N/NC(=O)CNc2n[nH]c(=O)[nH]c2=O)ccc1O	9%	-6.1%	17%	0%	6%	-13%	-24%	-3%
COc1cccc(C(=O)CSc2nccn2C)c1	/	/	1%	11%	-9%	?	12%	12%[46.1 µM]
Cc1cc(C)c(O)c(C2(O)C(=O)c3ccccc3C2=O)c1	/	/	0%	2%	0%	-15%[46.1 µM]	56%[activator]	15%
CC1CC(C)CN(C(=O)C(C)N(C)CC(=O)Nc2ccc(F)cc2)C1 (stereo not drawn)	/	/	0%	/	-11%	?	-15%	-16%
O=C(NCC(c1cccs1)N1CCOCC1)c1cc(S(=O)(=O)N2CCOCC2)c(Cl)cc1Cl (stereo not drawn)	/	/	-3%	/	-2%	?	-2%	1%
COc1ccc(CCNC(=O)c2cnc3sc(N4CCCC4)nn3c2=O)cc1OC	-1%	-2.3%	/	/	/	/	?	-21%[46.1 µM]
O=C(NCCc1ccccc1)C1CCN(c2ncccn2)CC1	/	/	0%	0%	5%	?	9%	0%[46.1 µM]
CCn1c(=O)c([N+](=O)[O-])c(N2CCN(Cc3ccc4c(c3)OCO4)CC2)c2ccccc21	/	/	-1%	1%	3%	?	32µM*	?
CCOC(=O)C1CCN(CCC(=O)Nc2ccc(C)cc2)CC1	/	/	9%	-1%	13%	5%[46.1 µM]	-8%	9%[46.1 µM]
COc1ccccc1N1CCN(C(c2ccccc2)c2nnnn2CCc2ccccc2)CC1 (stereo not drawn)	29%	-4.9%	-19%	-1%	7%	?	-10%	?
Cc1ccc(N(CC(=O)NCc2ccc(F)cc2)S(=O)(=O)c2cccs2)cc1	-5%	-1.5%	5%[6.58 µM]	-1%	1%	-17%	/	-14%
NC(=O)[C@@H]1CC2(CC(c3cccc(NC(=O)[C@@H]4CCC(=O)N4)c3)=NO2)CN1C(=O)Cc1ccc([N+](=O)[O-])cc1 (stereo partly drawn)	/	/	0%	2%	7%	/	8%	/
COc1ccc(C)cc1S(=O)(=O)Nc1ccc2c(c1)OCO2	/	/	-2%	0%	6%	?	37%[activator]	2%
Cc1nc2cc(N=NC3=C(O)CCCC3=O)ccc2s1	-12%	-12%	-37%	5%	-18%	-30%	13%	?
CCc1nnc(SCC(=O)Nc2ccc(F)cc2)o1	/	/	-4%	-4%	-11%	-5%[46.1 µM]	24%	18%[46.1 µM]
COc1ccc(OC)c(NC(=O)N2CCN(Cc3nc4ccc(C)cc4o3)CC2)c1	18%	-1.5%	/	/	/	/	-14%	-5%[46.1 µM]
CCN(C(=O)COC(=O)CNC(=O)C1CCCCC1)c1ccccc1	/	/	-3%	/	3%	21%	-19%	2%
CC(Sc1nc(NC(C)(C)C)nc(N(C)C)n1)C(=O)Nc1ccccc1 (stereo not drawn)	/	/	-3%	/	-10%	-2%[46.1 µM]	?	/
COc1ccc2cc(-c3[nH]ncc3CN3C[C@@H]4CCC[C@H]3C4)ccc2c1	/	/	-1%	-1%	12%	?	-6%	-18%[46.1 µM]
O=C(c1ccccc1)N1CCN(C2CC3CCC2C3)CC1 (stereo not drawn)	11%	-1.3%	6%	1%	12%	14%	5%	3%
C/C(Nc1cccc(F)c1)=C(/C#N)C(N)=O	-3%	-2.3%	6%	-10%	0%	1%	/	-5%
O=C(COC(=O)CCCOc1ccc(Cl)cc1Cl)Nc1cccc(Cl)c1	-7%	-6.2%	-20%	-13%	6%	2%	-22%	4%
C#CC(CC)(CC)NC(=O)c1ccc(Br)s1	/	/	-1%	/	13%	?	-6%	-18%[46.1 µM]
Cc1nc(CS(=O)(=O)c2ccccc2)cc(N2CCOCC2)n1	-3%	4.1%	-3%	3%	?	?	25%	12%
O=C(CNC(=O)OCc1ccccc1)OC(c1ccccc1)c1ccccc1	/	/	/	/	5%	?	?	?
NC(=O)C(c1ccc(Cl)cc1)c1ccc(Sc2ccccc2)nn1 (stereo not drawn)	-2%	4.3%	-2%	-2%	10%	-7%	-21%	-18%
Cn1ncc(Cl)c1C(=O)NCC1CCCO1 (stereo not drawn)	/	/	6%	11%	2%	/	-21%	/
CCN(CC)S(=O)(=O)c1cccc(NC(=O)C2SC(=Nc3ccc(C)cc3C)C(C(=O)NCC3CCCO3)=C2N)c1 (stereo not drawn)	-1%	1.2%	-1%	?	6%	?	0%	1%
COc1ccc(CCNC(=O)CSc2ccc(-c3ccncc3)nn2)cc1	/	/	0%	2%	0%	/	-17%	/

Further results.
SMILES	Cruzain inh noDet	Cruzain inh Det	SARS PLpro yeast	NS1 function inh	RE007 growth inh	MARV entry inh	StopGo reporter	Lassa entry inh
CCc1nc2c(cnn2-c2ccc(Cl)cc2)c(=O)n1-c1ccc(OC)cc1	?	-7.7%	7%	-45%	-1%	?	?	?
COC(=O)c1c(C(=O)OC)c(-c2ccc(C(C)(C)C)cc2)n2c1CS(=O)C2 (stereo not drawn)	/	/	-5%	/	30%	-6%[46.1 µM]	7%	-8%[46.1 µM]
Cc1ccccc1OCCN=Cc1c(O)n(C)c(=O)n(C)c1=O	-1%	3.4%	7%	-5%	-2%	0%	?	9%
CC(C)COC(=O)c1ccc(NC(=O)C2C3C=CC(C3)C2C(=O)O)cc1 (stereo not drawn)	-2%	2.5%	-6%	-74%	-13%	?	8%	?
O=C(NCc1ccccn1)C1CN(S(=O)(=O)c2ccccc2)CCN1S(=O)(=O)c1ccccc1 (stereo not drawn)	/	/	-1%	0%	-15%	1%[46.1 µM]	2%	-2%
Cc1ccc(-n2nnc(-c3cc4ccccc4nc3Cl)n2)cc1	/	/	0%	0%	13%	/	66%[activator]	/
Cc1[nH][nH]c(=O)c1C(c1ccc(N(C)C)c(Br)c1)c1c(C)[nH][nH]c1=O	/	/	-3%	-3%	-1%	-27%[46.1 µM]	-11%	12%[46.1 µM]
COc1ccc(C(=O)CC(=O)c2ccccc2O)cc1OC	/	/	-2%	0%	6%	11%[46.1 µM]	24%	-1%[46.1 µM]
CCOC(=O)c1sc(NC(=O)c2cccc(S(=O)(=O)N3c4ccccc4CC3C)c2)cc1C (stereo not drawn)	?	-3.8%	-9%	22%	10%	?	0%	?

Screening data deposited in PubChem by National Center for Advancing Translational Sciences (NCATS).
